From PubChem BioAssay
rRNA inh HTS: selective bacterial rRNA inhibition in E. coli. E. coli WT GFP vs humanized-ribosome RFP mutants, fluorescence, 24 h; active compounds read low; DMSO median 0, no signal -100. GFP signal change (wild-type ribosome), % (test concentration not listed). 1.6% of 350,000 active. AID 720706;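 active = significant combined selectivity score with lowered wild-type GFP, culture density cut under 30%, mutant RFP and density less affected; inactive = any of these conditions unmet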; also: one replicate is shown; some compounds called inactive have numbers as strong as hits
rRNA inh HTS OD600: further read-out of rRNA inh HTS, marked with its call; OD600 change, %; measured here: OD600 growth;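 optical density of the mix in the first replicate; 0 = DMSO median and -100 = no signal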
rRNA inh HTS RFP: also measured in rRNA inh HTS; calls as there; RFP signal change, %; measured here: RFP humanized mutant strains;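 first replicate; 0 = DMSO median and -100 = no signal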
The depositor's hits bear a star; & = joins results of further samples. This is a subset, so the mix of outcomes need not match the whole.

Screening COc1ccc(NC(=O)Nc2ccc3c(c2)C(=O)N([C@H](C)CO)C[C@@H](C)[C@H](CN(C)C(=O)C2CCCCC2)OCCCC[C@H](C)O3)cc1 returned rRNA inh HTS -1.6, rRNA inh HTS OD600 6.9 and rRNA inh HTS RFP 0.1.
`CO[C@H]1CN(C)C(=O)c2ccc(NC(=O)C3CC3)cc2OC[C@H](C)N(C(=O)c2ccccn2)C[C@@H]1C` gave rRNA inh HTS 2.6, rRNA inh HTS OD600 1.3 and rRNA inh HTS RFP -1.3.
`Cc1noc(C)c1S(=O)(=O)N(C)C[C@H]1Oc2ccc(NC(=O)C3CC3)cc2CC(=O)N([C@H](C)CO)C[C@H]1C` gave rRNA inh HTS 1.8, rRNA inh HTS OD600 4.8 and rRNA inh HTS RFP 0.4.
`CNC[C@@H]1Oc2ncc(C#Cc3ccc(OC)c(OC)c3)cc2C(=O)N([C@H](C)CO)C[C@@H]1C` gave rRNA inh HTS 2.2, rRNA inh HTS OD600 10.0 and rRNA inh HTS RFP 1.1.
For Cc1ccc(C)c(NC(=O)C2(C)CCCN2C(=O)C(C)C)c1 (stereo unspecified) the results were rRNA inh HTS 10.7, rRNA inh HTS OD600 12.1 and rRNA inh HTS RFP 2.5.
For C[C@H](CO)N1C[C@H](C)[C@H](CN(C)C(=O)C2CCCCC2)Oc2ncc(C#CC3CCCCC3)cc2C1=O the results were rRNA inh HTS 6.1, rRNA inh HTS OD600 -1.1 and rRNA inh HTS RFP 1.4.
C[C@H]1CN([C@@H](C)CO)C(=O)Cc2cc(NS(=O)(=O)c3cccs3)ccc2O[C@H]1CN(C)S(=O)(=O)c1ccccc1 was read as rRNA inh HTS 0.1, rRNA inh HTS OD600 -3.5 and rRNA inh HTS RFP -1.2.
For CN(C)C(=O)C[C@H]1C[C@@H]2c3cc(NS(C)(=O)=O)ccc3O[C@@H]2[C@@H](CO)O1 the results were rRNA inh HTS 4.0, rRNA inh HTS OD600 4.6 and rRNA inh HTS RFP 1.1.
For C[C@@H]1CN([C@@H](C)CO)C(=O)c2cc(NC(=O)C3CCCCC3)ccc2O[C@@H](C)CCCCO[C@@H]1CN(C)S(=O)(=O)c1ccc(Cl)cc1 the results were rRNA inh HTS 0.7, rRNA inh HTS OD600 -0.8 and rRNA inh HTS RFP 2.5.
CCC(=O)Nc1ccc2c(c1)OC[C@@H](C)NC[C@@H](C)[C@H](OC)CN(C)C2=O was read as rRNA inh HTS -1.5, rRNA inh HTS OD600 3.2 and rRNA inh HTS RFP -1.7.
O=C(C[C@@H]1CC[C@H]2[C@@H](COC[C@@H](O)CN2Cc2cccc(F)c2)O1)NCc1cccc(F)c1 was read as rRNA inh HTS -1.6, rRNA inh HTS OD600 -0.6 and rRNA inh HTS RFP -0.3.
For CN1CCC(NC(=O)C2(C)CCN2Cc2ccc3ccccc3c2)CC1 (stereo unspecified) the results were rRNA inh HTS 6.3, rRNA inh HTS OD600 18.8 and rRNA inh HTS RFP -2.3.
COc1ccc(NC(=O)Nc2ccc3c(c2)C(=O)N([C@H](C)CO)C[C@@H](C)[C@@H](CN(C)C)O3)cc1 was read as rRNA inh HTS 1.7, rRNA inh HTS OD600 9.7 and rRNA inh HTS RFP -2.4.
Screening Cc1noc(C)c1NC(=O)Nc1ccc2c(c1)CC(=O)N([C@H](C)CO)C[C@@H](C)[C@@H](CN(C)S(=O)(=O)c1ccc(F)cc1)O2 returned rRNA inh HTS 2.0, rRNA inh HTS OD600 -6.8 and rRNA inh HTS RFP -1.1.
For C[C@@H]1CN([C@H](C)CO)C(=O)Cc2cc(NS(C)(=O)=O)ccc2O[C@H]1CN(C)Cc1ccc(C(=O)Nc2ccccc2N)cc1 the results were rRNA inh HTS -1.7, rRNA inh HTS OD600 -4.0 and rRNA inh HTS RFP -1.2.
C[C@@H](O)C#Cc1ccc2c(c1)O[C@@H](CN(C)Cc1ccccc1)[C@@H](C)CN([C@@H](C)CO)S2(=O)=O was read as rRNA inh HTS -0.5, rRNA inh HTS OD600 -0.9 and rRNA inh HTS RFP 3.0.
COC(=O)[C@H]1C[C@H](OC(=O)NCc2ccccc2)[C@@]2(O)CN(S(=O)(=O)c3ccc(C)cc3)CC2[C@H]1C(=O)OC (stereo partly specified) was read as rRNA inh HTS -3.1, rRNA inh HTS OD600 -1.6 and rRNA inh HTS RFP 3.4.
C[C@H](CO)N1C[C@H](C)[C@H](CN(C)Cc2ccncc2)Oc2ccc(NS(=O)(=O)c3ccc(F)cc3)cc2CC1=O was read as rRNA inh HTS 4.5, rRNA inh HTS OD600 -4.5 and rRNA inh HTS RFP 5.0.
`C[C@@H]1CN([C@H](C)CO)C(=O)c2cc(NC(=O)c3ccncc3)ccc2O[C@@H]1CN(C)S(=O)(=O)c1ccc(Cl)cc1` gave rRNA inh HTS -0.2, rRNA inh HTS OD600 -0.1 and rRNA inh HTS RFP 1.8.
`O=C(NCC[C@@H]1CC[C@H](NS(=O)(=O)c2cccc(F)c2)[C@H](CO)O1)C1CCOCC1` gave rRNA inh HTS -2.3, rRNA inh HTS OD600 0.0 and rRNA inh HTS RFP -1.3.
Screening COc1ccc(NC(=O)N(C)C[C@H]2OCCCC[C@@H](C)Oc3ccc(NC(=O)Nc4ccc(C(F)(F)F)cc4)cc3C(=O)N([C@@H](C)CO)C[C@H]2C)cc1 returned rRNA inh HTS 5.5, rRNA inh HTS OD600 5.1 and rRNA inh HTS RFP -2.4.
`C[C@@H]1CN([C@H](C)CO)S(=O)(=O)c2ccc(-c3cncnc3)cc2O[C@H]1CN(C)C(=O)C1CC1` gave rRNA inh HTS 0.3, rRNA inh HTS OD600 4.3 and rRNA inh HTS RFP -4.0.
For COc1ccc(CNC(=O)C[C@H]2C=C[C@H](NC(=O)c3cccc(F)c3)[C@H](CO)O2)cc1 the results were rRNA inh HTS -2.9, rRNA inh HTS OD600 0.3 and rRNA inh HTS RFP 0.8.
CO[C@H]1CN(C)C(=O)c2ccc(NC(=O)Nc3ccc4c(c3)OCO4)cc2OC[C@@H](C)NC[C@H]1C was read as rRNA inh HTS 4.5, rRNA inh HTS OD600 2.0 and rRNA inh HTS RFP -1.7.
Screening O=C(c1ccccc1)N1CC[C@@H]2[C@@H](CO)Nc3ccc(C#Cc4cccc(F)c4)cc3[C@@H]21 returned rRNA inh HTS -5.0, rRNA inh HTS OD600 -1.2 and rRNA inh HTS RFP 5.0.
COC(=O)c1c(NC(=O)COC(=O)CNC(=O)c2cccc(OC(F)F)c2)sc(C)c1C was read as rRNA inh HTS 10.7, rRNA inh HTS OD600 9.8 and rRNA inh HTS RFP 3.0.
`O=S(=O)(N[C@H]1CC[C@@H](CCn2cc(C3(O)CCCC3)nn2)O[C@H]1CO)c1ccc(Cl)cc1` gave rRNA inh HTS -5.8, rRNA inh HTS OD600 -11.6 and rRNA inh HTS RFP -1.0.
`COC(=O)C[C@@H]1CC[C@H]2[C@@H](COc3ccc(NC(=O)c4cc(C)on4)cc3C(=O)N2C)O1` gave rRNA inh HTS 0.5, rRNA inh HTS OD600 6.8 and rRNA inh HTS RFP -1.4.
`COc1ccc(S(=O)(=O)Nc2ccc3c(c2)C(=O)N([C@H](C)CO)C[C@H](C)[C@@H](CN(C)S(=O)(=O)c2ccc(C)cc2)OCCCC[C@@H](C)O3)cc1` gave rRNA inh HTS -2.9, rRNA inh HTS OD600 1.8 and rRNA inh HTS RFP -0.4.
`CN(C)C(=O)c1ccc(-c2ccc3c(c2)[C@H]2[C@H](CCN2Cc2ccc4c(c2)OCO4)[C@@H](CO)N3)cc1` gave rRNA inh HTS 3.6, rRNA inh HTS OD600 11.9 and rRNA inh HTS RFP -0.8.

4 compounds already listed, ordered by molecular weight, low to high:
For COc1ccc(CNC(=O)C[C@H]2C=C[C@H](NC(=O)c3cccc(F)c3)[C@H](CO)O2)cc1 the results were rRNA inh HTS -2.9, rRNA inh HTS OD600 0.3 and rRNA inh HTS RFP 0.8.
COC(=O)c1c(NC(=O)COC(=O)CNC(=O)c2cccc(OC(F)F)c2)sc(C)c1C was read as rRNA inh HTS 10.7, rRNA inh HTS OD600 9.8 and rRNA inh HTS RFP 3.0.
`C[C@@H]1CN([C@H](C)CO)C(=O)c2cc(NC(=O)c3ccncc3)ccc2O[C@@H]1CN(C)S(=O)(=O)c1ccc(Cl)cc1` gave rRNA inh HTS -0.2, rRNA inh HTS OD600 -0.1 and rRNA inh HTS RFP 1.8.
Screening COc1ccc(NC(=O)N(C)C[C@H]2OCCCC[C@@H](C)Oc3ccc(NC(=O)Nc4ccc(C(F)(F)F)cc4)cc3C(=O)N([C@@H](C)CO)C[C@H]2C)cc1 returned rRNA inh HTS 5.5, rRNA inh HTS OD600 5.1 and rRNA inh HTS RFP -2.4.

Reprinted at random: two entries already listed, in no set order.
`O=C(NCC[C@@H]1CC[C@H](NS(=O)(=O)c2cccc(F)c2)[C@H](CO)O1)C1CCOCC1` gave rRNA inh HTS -2.3, rRNA inh HTS OD600 0.0 and rRNA inh HTS RFP -1.3.
C[C@H](CO)N1C[C@H](C)[C@H](CN(C)Cc2ccncc2)Oc2ccc(NS(=O)(=O)c3ccc(F)cc3)cc2CC1=O was read as rRNA inh HTS 4.5, rRNA inh HTS OD600 -4.5 and rRNA inh HTS RFP 5.0.

(next part)
C[C@H](CO)N1C[C@H](C)[C@H](CN(C)Cc2cccnc2)Oc2cc(C#CC3CCCCC3)ccc2S1(=O)=O was read as rRNA inh HTS -4.8, rRNA inh HTS OD600 -9.4 and rRNA inh HTS RFP 1.1.
Screening C[C@H](CO)N1C[C@H](C)[C@H](CN(C)CC2CCCCC2)OCCCC[C@H](C)Oc2ccc(NC(=O)Nc3ccc4c(c3)OCO4)cc2C1=O returned rRNA inh HTS -27.5, rRNA inh HTS OD600 -56.5 and rRNA inh HTS RFP 10.6.
For C[C@@H]1CN([C@@H](C)CO)C(=O)c2cc(NC(=O)NC3CCCCC3)ccc2O[C@@H](C)CCCCO[C@@H]1CN(C)Cc1ccccc1 the results were rRNA inh HTS -3.8, rRNA inh HTS OD600 -8.6 and rRNA inh HTS RFP 10.6.
`COc1ccc(S(=O)(=O)N(C)C[C@@H]2OCCCC[C@@H](C)Oc3ccc(NC(=O)CCCCCC(=O)Nc4ccccc4N)cc3C(=O)N([C@H](C)CO)C[C@@H]2C)cc1` gave rRNA inh HTS 0.8, rRNA inh HTS OD600 6.7 and rRNA inh HTS RFP -0.8.
CCCn1cnnc1CNC(=O)[C@H]1O[C@@H](n2ccc(=O)[nH]c2=O)[C@H](O)[C@@H]1O was read as rRNA inh HTS 8.5, rRNA inh HTS OD600 6.4 and rRNA inh HTS RFP -2.4.
Screening CCCNC(=O)N(C)C[C@@H]1Oc2cc(C#CCC(C)C)ccc2S(=O)(=O)N([C@H](C)CO)C[C@H]1C returned rRNA inh HTS -12.4, rRNA inh HTS OD600 -53.6 and rRNA inh HTS RFP 25.4.
For C[C@@H]1CN([C@H](C)CO)C(=O)c2cc(Br)cnc2O[C@H]1CN(C)C(=O)c1ccc(F)cc1 the results were rRNA inh HTS -2.3&5.4, rRNA inh HTS OD600 8.5&-4.5 and rRNA inh HTS RFP 0.9&-0.4.
Screening Nc1nc2c(ncn2[C@@H]2O[C@H](C(=O)N[C@H](Cc3ccccc3)C(=O)NCC3CCCCC3)[C@@H](O)[C@H]2O)c(=O)[nH]1 returned rRNA inh HTS 10.8, rRNA inh HTS OD600 -10.6 and rRNA inh HTS RFP 4.5.
`COc1ccc(NC(=O)N(C)C[C@@H]2Oc3ccc(NC(=O)CCCCCC(=O)Nc4ccccc4N)cc3CC(=O)N([C@@H](C)CO)C[C@H]2C)cc1` gave rRNA inh HTS 2.9, rRNA inh HTS OD600 9.0 and rRNA inh HTS RFP -0.8.
C[C@@H]1CN([C@@H](C)CO)S(=O)(=O)c2ccc(-c3ccc(F)cc3)cc2O[C@H]1CN(C)C(=O)Nc1ccccc1F was read as rRNA inh HTS -3.8, rRNA inh HTS OD600 -0.5 and rRNA inh HTS RFP 0.9.
COc1cccc(CNC(=O)[C@H]2CCCN2C(=O)[C@H]2CCCN2C(=O)c2cccc(F)c2)c1 was read as rRNA inh HTS 11.1, rRNA inh HTS OD600 4.9 and rRNA inh HTS RFP 1.1.
Screening CCCN(C)C[C@H]1Oc2cc(Br)ccc2S(=O)(=O)N([C@@H](C)CO)C[C@H]1C returned rRNA inh HTS 3.7, rRNA inh HTS OD600 2.6 and rRNA inh HTS RFP -3.7.
`COCC(=O)N(C)C[C@@H]1Oc2ncc(-c3ccccc3C)cc2C(=O)N([C@@H](C)CO)C[C@@H]1C` gave rRNA inh HTS 1.8, rRNA inh HTS OD600 2.0 and rRNA inh HTS RFP -1.6.
CCCN1[C@H](C(=O)NCCc2cn(C)cn2)[C@@H](CO)[C@@H]2Cn3c(ccc(-c4ccccc4)c3=O)[C@@H]21 was read as rRNA inh HTS 1.9, rRNA inh HTS OD600 -0.4 and rRNA inh HTS RFP 1.5.
`C[C@@H]1CCCCO[C@H](CN(C)C(=O)Nc2ccccc2)[C@@H](C)CN([C@H](C)CO)C(=O)c2cc(NC(=O)CCC(F)(F)F)ccc2O1` gave rRNA inh HTS -3.8, rRNA inh HTS OD600 9.8 and rRNA inh HTS RFP -2.4.
